Screening results: PubChem, National Center for Advancing Translational Sciences (NCATS)
VDR inh – inhibitors of human vitamin D receptor. P11473. VDR-SRC2-3 peptide fluorescence polarization, 2 h. Potency, µM, inactives show max response, negative = inhibition, actives largely listed as inhibitors. 400,000 compounds, 0.93% hits; active means well fitted inhibition curve with a large enough effect; inconclusive means small, poorly fitted or top-dose-only effect, or another doubt; inactive means no such curve, though single readings can be large or run the other way; further: series mostly up to about 120 µM
Target sequence (P11473 whole entry, looked up): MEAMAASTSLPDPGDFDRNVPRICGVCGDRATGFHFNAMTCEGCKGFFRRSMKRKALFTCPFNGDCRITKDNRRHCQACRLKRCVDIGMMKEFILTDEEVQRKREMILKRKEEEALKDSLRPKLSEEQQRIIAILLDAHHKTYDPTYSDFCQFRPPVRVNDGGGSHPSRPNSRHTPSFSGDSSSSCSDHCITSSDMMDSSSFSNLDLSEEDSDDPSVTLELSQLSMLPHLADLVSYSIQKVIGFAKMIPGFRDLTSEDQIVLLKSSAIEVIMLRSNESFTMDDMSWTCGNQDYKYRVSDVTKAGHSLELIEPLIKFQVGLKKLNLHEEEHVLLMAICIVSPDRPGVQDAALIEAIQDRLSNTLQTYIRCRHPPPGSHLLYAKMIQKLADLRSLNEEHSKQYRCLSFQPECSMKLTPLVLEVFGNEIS
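Measured by FP: displacement of SRC2-3 coactivator peptide from VDR by library compounds, following a two-hour ambient incubation.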
* marks the source's active call; other numbers are inactive results; ! = not confirmed by another sample; [ ] = another dose, or the depositor's remark. On the % scale 0 is the no-effect control and ±100 the full control effect; potency means the concentration at half of the fitted maximal effect. These rows are one share of the data; the hit share may differ from the screen's.

`NS(=O)(=O)c1cccc2c1c([N+](=O)[O-])cc1nc(O)c(O)nc12` gave VDR inh 39.8µM*!.
`COC(=O)c1c(-c2ccccc2)csc1NC(=O)CSc1ncnc2sc(C)c(C)c12` gave VDR inh 8.5%.
For CCC(C)OC(=O)C1=C(C)NC2=C(C(=O)C(C(=O)OC)C(C)C2)C1c1ccc(N(C)C)cc1 (configuration not stated) the results were VDR inh -7.5%.
For COc1cc(S(=O)(=O)N2CCOCC2)ccc1NC(=O)COC(=O)COc1ccccc1 the results were VDR inh -3.9%.
Cc1nc(SCC(=O)Nc2cc(C(N)=O)cc(C(N)=O)c2)c2c(C)c(C)sc2n1 was read as VDR inh -10.9%.
Screening CS(=O)(=O)N(CC(=O)Nc1ccc(F)cc1F)C1CCCCC1 returned VDR inh -13.6%.
Cc1ccc2c(=O)c(C(=O)c3ccc(F)cc3)cn(CC(=O)NCCc3ccccc3)c2n1 was read as VDR inh -6.7%.
`COc1ccc(OC)c(C2/C(=C(\O)c3ccc4c(c3)OCCO4)C(=O)C(=O)N2CC2CCCO2)c1` (configuration not stated) gave VDR inh -4.2%.
Screening COc1cc(-c2nc(CN3CCCN(C(=O)c4ccco4)CC3)c(C)o2)ccc1F returned VDR inh -12.1%.
Screening C=C1CCN([C@@H](Cc2ccccc2)C(=O)Nc2ccc(OC)cc2)S(=O)(=O)c2ccccc21 returned VDR inh -2.2%.
For COc1cccc(N2CC(NC(=O)COc3ccccc3F)CC2=O)c1 (configuration not stated) the results were VDR inh 11.2%.
Screening COc1ccc(NC(=O)CSc2ccc3c(c2)OCCO3)cc1OC returned VDR inh 12.6%.
O=c1c2c3c(sc2n(Cc2cc(=O)n4ccccc4n2)c(=O)n1-c1ccc(Cl)cc1)CCC3 was read as VDR inh -23.6%.
COc1ccccc1OCC(=O)NCC(c1ccc(Cl)cc1)N1CCOCC1 (configuration not stated) was read as VDR inh 13.5%.
`COc1cccc(-c2cc(C(=O)Nc3c(C)nn(Cc4ccccc4C)c3C)no2)c1` gave VDR inh 19.3%.
CC(C)CC(COCc1cccc(C(F)(F)F)c1)N1CCN(C(=O)c2cccc(C(F)(F)F)c2)CCC1=O (configuration not stated) was read as VDR inh -23.2%.
Screening Cn1cc(CC(=O)NCCCN2CCCC2)c2ccccc21 returned VDR inh 12.4%.
Screening CCc1ccc(-c2ccc(C(=O)Oc3ccc(Br)cc3)cc2)nc1 returned VDR inh -8.0%.
`Cc1ccc(C)c2[nH]c(=O)c(CCNC(=O)c3ccc(S(=O)(=O)N(C)C)cc3)cc12` gave VDR inh -8.5%.
For O=C(CCc1nnc2ccc(NCc3ccco3)nn12)Nc1ccccc1F the results were VDR inh -9.8%.
Screening COc1ccc(CCN2CC(C(=O)N(C)CC(=O)Nc3ccc(F)c(F)c3F)CC2=O)cc1OC (configuration not stated) returned VDR inh -13.2%.
N#Cc1c(/N=C/N2CCOCC2)sc2c1CCCCC2 was read as VDR inh -8.2%.
Cc1ccc(CC2SC(N)=NC2=O)cc1 (configuration not stated) was read as VDR inh -29.9%.
`CCOC(=O)Cc1csc(NC(=O)Cn2cnc3c2c(=O)n(C)c(=O)n3C)n1` gave VDR inh inconclusive.
Screening O=C(Nc1nc2c(s1)CN(Cc1ccccc1)CC2)C1CCCC1 returned VDR inh -9.1%.
Screening O=C(COC(=O)Cn1[nH]c(=O)c2ccccc2c1=O)NNC(=O)c1ccccc1 returned VDR inh 89.3%[activator].
`O=C1C(c2ccccc2)c2ccccc2N1Cc1ccccc1` (configuration not stated) gave VDR inh 7.1%.
Screening COc1ccccc1-c1nc(C#N)c(N2CCN(C(=O)c3ccco3)CC2)o1 returned VDR inh -21.8%.
`CC(=O)Nc1ccc(-c2csc(NNC(=O)c3ccccc3)n2)cc1` gave VDR inh 10.2%.
For CCOc1ccccc1NC(=O)COC(=O)c1ccccc1SCC(=O)N1CCCC1 the results were VDR inh -9.4%.
For COC(=O)c1ccc(C)c(NC(=O)CCNC(=O)c2ccc([N+](=O)[O-])cc2)c1 the results were VDR inh 9.3%.
COc1ccc(CCC(C)NC2CCCCCCC2)cc1 (configuration not stated) was read as VDR inh -6.6%.
COc1ccc(Nc2c3c(nc4ccccc24)CCC3)cc1 was read as VDR inh inconclusive.
For Cc1ccc(SCCN2CCC(C(C)(C)C)CCC2=O)cc1 (configuration not stated) the results were VDR inh -11.9%.
For COc1ccc(CCNC(=O)c2ccc3c(c2)sc2nc(-c4ccccc4)cn23)cc1OC the results were VDR inh 15.0%.
`Cc1nc2ccc(NC(=O)c3ccc([N+](=O)[O-])cc3[N+](=O)[O-])cc2s1` gave VDR inh 1.9%.
Screening O=C(c1cccc(NS(=O)(=O)c2ccccc2)c1)N1CCCC1 returned VDR inh 30.5%[activator].
Screening CN1CCN(CCCCOc2ccccc2C=O)CC1 returned VDR inh -6.5%.
O=C(Nc1ccc2oc(-c3ccc4ccccc4c3)nc2c1)c1ccc(Cl)c(Cl)c1 was read as VDR inh -27.3%.
Screening Cn1c(=O)c2c(ncn2Cc2ccccc2)n(C)c1=O returned VDR inh -24.6%.
`Cc1ccc(CN2CCC(=O)N2)cc1` gave VDR inh 14.0%.
Screening O=C(COc1ccccc1F)Nc1ccc(S(=O)(=O)Nc2nccs2)cc1 returned VDR inh 33.2%[activator].
For CCOc1ccc(-n2c(/C=C/c3cccc(F)c3)nc3cc(OC)c(OC)cc3c2=O)cc1 the results were VDR inh 19.1%.
`O=S(=O)(c1cccc(NC(=S)N2CCN(c3ccccc3F)CC2)c1)C(F)F` gave VDR inh -2.6%.
COc1cc(/C=N/NC(=O)c2ccccn2)ccc1OC(=O)c1ccc(Br)cc1 was read as VDR inh -6.7%.
`CN(C(=O)c1ccc2c(=O)n3c(nc2c1)CCCCC3)c1cccc(Cl)c1` gave VDR inh 0.9%.
For CN(C(=O)c1cccc(NC(=O)Cc2ccc([N+](=O)[O-])cc2)c1)C1CC1 the results were VDR inh -5.6%.
`CCOc1ccc(N(C)C(=O)CCc2nnc3ccc(N4CCOCC4)nn23)cc1` gave VDR inh -23.9%.
For O=C(CN(Cc1ccc(F)cc1)C(=O)CNS(=O)(=O)c1ccc(F)cc1)NCC1CCCO1 (configuration not stated) the results were VDR inh -2.4%.
`CCCCN(CCCC)Cc1cc2ccccc2c2c1COC2` gave VDR inh 6.6%.
For O=[N+]([O-])c1cccc(S(=O)(=O)NCCc2ccccc2)c1 the results were VDR inh inconclusive.
`COCCN1C(=O)c2[nH]nc(-c3ccccc3O)c2C1c1ccc(Cl)c(Cl)c1` (configuration not stated) gave VDR inh 8.0%.
`CC(=O)OCC(CCn1cnc2cnc(N)nc21)COC(C)=O` gave VDR inh 1.5%.
For CC(=O)Nc1ccc2[nH]c(C)cc(=O)c2c1 the results were VDR inh 12.3%.
For CCOC(=O)N1CCC(NS(=O)(=O)c2ccc3c(c2)oc(=O)n3C)CC1 the results were VDR inh 10.6%.
For COc1ccc(C(=O)N2CCN(c3nc4c(OC)cccc4s3)CC2)cc1OC the results were VDR inh 15.9%.
Screening COc1ccc(CCN(Cc2cc3cc(C)cc(C)c3nc2Cl)C(=O)C2CC2)cc1 returned VDR inh 19.0%.
CCc1sc(N(C(=O)Cc2ccccc2)c2cccc(F)c2)nc1-c1ccc(C)cc1 was read as VDR inh -4.2%.
For CC1CCN(Cc2c(O)ccc3c(=O)c(-c4nc5ccccc5s4)c(N)oc23)CC1 the results were VDR inh -14.7%.
For O=C(C1CCC(CNc2nc(=S)[nH]c3ccccc23)CC1)N1CCN(c2ccc(F)cc2)CC1 (configuration not stated) the results were VDR inh 7.6%.
For CCN1C(=O)c2ccccc2Sc2ccc(NC(=O)Nc3cccc([N+](=O)[O-])c3C)cc21 the results were VDR inh 7.3%.
For Cn1nc(C(=O)NCCCN2CCCCC2)c2c1-c1ccccc1SC2 the results were VDR inh -16.9%.
Screening Cc1noc(C)c1COc1ccc(C(=O)OCC(=O)Nc2ccc3c(c2)OCO3)cc1 returned VDR inh -5.7%.
`COc1cccc(OCCN2CCN(c3ncnc4c3cnn4-c3ccccc3)CC2)c1` gave VDR inh 6.0%.
`Cc1cccc([C@@H]2[C@@H]3C(=O)N(Cc4ccccc4)C(=O)[C@@H]3[C@]3(Cc4ccc(Cl)cc4)C(=O)N(c4cccc(Br)c4)C(=O)N23)c1` gave VDR inh -17.8%.
Screening CCN(CC)S(=O)(=O)c1ccc(Cl)c(C(=O)Nc2cc(C)nn2-c2ccccc2)c1 returned VDR inh -5.0%.
`CCC1(C)Nc2ccccc2C(=O)N1O` (configuration not stated) gave VDR inh -6.8%.
`CC(=O)c1ccc(N(C(=O)CNC(=O)c2ccco2)C(C(=O)NC2CCCC2)c2ccc(C)o2)cc1` (configuration not stated) gave VDR inh 1.9%.
`CCC[C@@H](CN[C@@H](CNC)C(C)C)NCCCCc1ccccc1` gave VDR inh 11.6%.
Screening Cc1ccccc1-n1ncc2c1CC(C)(C)CC2NC(=O)C1=CC(=O)CC(C)(C)O1 (configuration not stated) returned VDR inh -2.6%.
For O=C(COC(=O)/C=C/c1ccc(Cl)cc1Cl)NCCC1=CCCCC1 the results were VDR inh 1.7%.
Cc1c(CN2CCN(C)C(CCO)C2)[nH]c2c(Cl)cccc12 (configuration not stated) was read as VDR inh -18.8%.
For Cc1cc2c(NS(=O)(=O)c3ccc(F)cc3)cccc2nn1 the results were VDR inh -17.4%.
`CC(C)(C)NC(=O)CN(C(=O)C(=O)Nc1ccc2c(c1)OCCO2)C(C)(C)C` gave VDR inh 3.6%.
Screening Cc1ccc(NC(=O)C(Cc2c[nH]c3ccccc23)NC(=O)OC(C)(C)C)c(C)c1 (configuration not stated) returned VDR inh 1.0%.
For N#Cc1c(SCC(=O)Nc2ccc(C(F)(F)F)cc2)sc2c(O)cc(=O)[nH]c12 the results were VDR inh -0.9%.
`COc1ccc(S(=O)(=O)N(C)C)cc1NC(=O)c1ccc2c(c1)OCCO2` gave VDR inh 8.5%.
For Cc1ccccc1C(=O)Nc1cccc(C(=O)N/N=C/c2ccc3c(c2)OCO3)c1 the results were VDR inh 15.9%.
C=CCSc1nnnn1-c1ccc(OC)cc1 was read as VDR inh 7.4%.
`Cc1nc2ccccc2n1CCc1nc2c3ccccc3nc(SCC(=O)Nc3ccc(Br)cc3F)n2n1` gave VDR inh 5.9%.
`C=CCN(Cc1cn(C)nc1-c1cccc(Cl)c1)C1CCS(=O)(=O)C1` (configuration not stated) gave VDR inh -12.7%.
Screening O=C(COC(=O)CC(c1ccccc1)c1ccccc1)NCc1ccc(Cl)cc1 returned VDR inh -14.1%.
`C[C@H](NCc1ccccc1)c1ccccc1` gave VDR inh 1.5%.
For CC(C)c1ccccc1OCC(O)CN(CC(O)COc1cccc2ccccc12)C(C)C (configuration not stated) the results were VDR inh -3.1%.
C=C(C)CN1CCN(c2ccc(N3C(=O)CCCC3=O)cc2[N+](=O)[O-])CC1 was read as VDR inh 3.1%.
C=CCn1c(Cc2cccs2)nnc1SCC(=O)c1ccc(F)cc1 was read as VDR inh inconclusive.
`COC(=O)C1CCN(C(=O)Nc2ccc(OC)cc2)CC1` gave VDR inh -2.9%.
Screening COc1ccc(CC(=O)Nc2ccc(N(C)C)c3ccccc23)cc1 returned VDR inh -12.8%.
Screening Cc1ccc(S(=O)(=O)N2CCCN(S(=O)(=O)C3CCS(=O)(=O)C3)CC2)cc1 (configuration not stated) returned VDR inh -5.7%.
Cc1ccsc1C(=O)OCC(=O)Nc1cccc(S(=O)(=O)NC2=NCCCCC2)c1 was read as VDR inh -0.3%.
Screening O=C(N/C(=C\c1ccccc1)C(=O)N1CCOCC1)c1ccc(Br)o1 returned VDR inh 0.3%.
Screening CC(C)(CO)NC(=O)c1ccc2c(c1)C(=O)c1ccccc1-2 returned VDR inh 8.5%.
`CC(C)c1ccccc1NC(=S)NC1CCN(Cc2ccccc2)CC1` gave VDR inh -11.2%.
For N#Cc1c(N)n(C2CCCCC2)c2nc3ccccc3nc12 the results were VDR inh 3.2%.
S=c1nc[nH]c2c1ncn2-c1ccc(Cl)cc1 was read as VDR inh inconclusive.
For Cc1c(NC(=O)c2ccc(NC(=O)C3CC3)cc2)cccc1C(=O)O the results were VDR inh -3.7%.
